Compound activity as filed in PubChem.
CDC25B CDK2 inh = human CDC25B-CDK2/CyclinA binding inhibition; AID 1259370; 0.72% of 94,000 active; P30305+P24941; HTRF CDC25B-CDK2/CyclinA binding, anti-His/anti-Flag; active compounds read high; z-score (test concentration not listed);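 further: score is relative to mean and SD of negative controls; strong numbers were not always called active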
TAR Tat displ = HIV-1 TAR-Tat binding disruption. z-score (concentration not given with the values). 0.6% of 100,000 active. HIV-1 TAR RNA, Tat peptide displacement FRET; active compounds read high. AID 1259389;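 further: score is relative to mean and SD of negative controls; some compounds called inactive have numbers as strong as hits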
* = called active by the depositor.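 How the source made its calls: active means z-score from 3 up in half or more of its runs; inactive means the rest.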 Hits appear at their usual frequency; about 0.9% have a hit in one of these screens.

Screening CC(C)c1ccc(C2N3CC4(C)CN2CC(C)(C3)C4O)cc1 (configuration not stated) returned CDC25B CDK2 inh -1.58.
Cn1c(SCC(=O)Nc2ccccc2F)nc2c(c1=O)SCC2 was read as CDC25B CDK2 inh -0.52 and TAR Tat displ 1.33.
CC1CCN(c2ncnc3c2cnn3-c2ccc(F)cc2)CC1 was read as TAR Tat displ 0.4.
Screening COc1cccc(C2C(C#N)=C(N)Oc3c2oc(CO)cc3=O)c1 (configuration not stated) returned CDC25B CDK2 inh -0.66.
COC(=O)c1sccc1NC(=O)COCc1cc(-c2ccc3c(c2)OCO3)on1 was read as TAR Tat displ -0.53.
For O=C(NCc1cccnc1)c1cc(Sc2ccccc2Cl)nc2ccccc12 the results were CDC25B CDK2 inh -0.21.
`O=C(Nc1ccc(OC(F)F)cc1)NC1CCN(C(=O)OCc2ccccc2)CC1` gave CDC25B CDK2 inh -2.38.
`O=C(CCCC1=NS(=O)(=O)c2ccccc2N1)Nc1ccccc1` gave TAR Tat displ -1.
Screening CCOc1ccc(C2=NC(c3ccncc3)=Nc3ccc(C)cc3N2)cc1OCC returned CDC25B CDK2 inh -0.01 and TAR Tat displ -0.15.
Screening COc1ccccc1-c1noc(CSc2nnc(C)n2-c2ccccc2)n1 returned CDC25B CDK2 inh -0.08 and TAR Tat displ 0.52.
For O=C1CC(NCC2CCCCC2)C(=O)N1c1ccccc1 (configuration not stated) the results were CDC25B CDK2 inh -0.69 and TAR Tat displ 0.08.
For O=C1COc2ccc(S(=O)(=O)N3CCC(C(=O)Nc4nccs4)CC3)cc2N1 the results were TAR Tat displ 2.44.
For CCOc1ccc(OCC)c(Nc2nc3ccccc3n3c(C)nnc23)c1 the results were CDC25B CDK2 inh -1.68 and TAR Tat displ 0.51.
For CC(C)[N+]1(Cc2ccccc2)C2=C(CN(C)CC2)c2ccccc21 (configuration not stated) the results were CDC25B CDK2 inh -0.39.
Screening O=C(c1ccc(F)cc1)C(C(=O)N1CCCCC1)n1cc(Cl)ccc1=O (configuration not stated) returned CDC25B CDK2 inh -0.48 and TAR Tat displ 0.88.
Cn1nc(C(=O)N2CC=C(c3ccccc3)CC2)c2c1-c1ccccc1SC2 was read as CDC25B CDK2 inh -0.75 and TAR Tat displ 0.78.
Screening CCc1nn(C(CC)C(=O)NC(C)c2ccccc2)c(=O)c2cc3oc(C)cc3n12 (configuration not stated) returned CDC25B CDK2 inh -0.27 and TAR Tat displ -0.65.
Screening Cc1noc(C)c1S(=O)(=O)N1CCCC(C(=O)Nc2ccc3c(c2)OCO3)C1 (configuration not stated) returned CDC25B CDK2 inh -1.35 and TAR Tat displ 0.58.
Screening CCOC(=O)N1CCN(c2ccc3nnnn3n2)CC1 returned CDC25B CDK2 inh -3.05.
`O=C(O)c1cnn2c3c(cnc12)CCCCC3` gave CDC25B CDK2 inh -0.13 and TAR Tat displ 0.75.
For Cn1c(=O)c2cc(S(=O)(=O)NCCC(=O)NC3CCCC3)ccc2n(C)c1=O the results were CDC25B CDK2 inh 3.48.
COc1cc(OC)c(OC)cc1CN1CCN(Cc2cccc3ccccc23)CC1 was read as CDC25B CDK2 inh 2.33.
CCOC(=O)N1CCC(N[C@H]2CS(=O)(=O)C[C@@H]2S(=O)(=O)c2ccc(Cl)cc2)CC1 was read as CDC25B CDK2 inh -1.29 and TAR Tat displ 0.34.
For O=S(=O)(NCc1cn2ccccc2n1)c1ccc2c(c1)CCCC2 the results were CDC25B CDK2 inh -0.65 and TAR Tat displ 1.7.
`CC1Cc2cc(S(=O)(=O)N3CCC(C(=O)NCC4CCCO4)CC3)ccc2N1C(=O)C1CC1` (configuration not stated) gave TAR Tat displ 0.21.
CC1(C)CC2(CC(C)(C)N1)N=C1C(=[N+]2[O-])CCC/C1=N\O was read as CDC25B CDK2 inh -3.22.
Screening COc1ccc(CSc2nc3ccncc3n2Cc2cccc(F)c2)cc1 returned CDC25B CDK2 inh -1.67 and TAR Tat displ -0.06.
For O=C(Oc1cccc2cccnc12)c1ccccc1Br the results were CDC25B CDK2 inh 0.05 and TAR Tat displ 0.75.
O=C(Nc1ccc(F)cc1F)NC1CCN(c2nc3ccccc3s2)CC1 was read as CDC25B CDK2 inh -0.4 and TAR Tat displ 0.98.
Screening CC(=O)NCCOc1nc(N2CCCCC2)nc(N2CCCCC2)n1 returned CDC25B CDK2 inh -0.79 and TAR Tat displ 1.02.

Some of these compounds in order of count of non-hydrogen atoms, smallest number first:
`O=C(O)c1cnn2c3c(cnc12)CCCCC3` gave CDC25B CDK2 inh -0.13 and TAR Tat displ 0.75.
For O=C(Oc1cccc2cccnc12)c1ccccc1Br the results were CDC25B CDK2 inh 0.05 and TAR Tat displ 0.75.
CC1(C)CC2(CC(C)(C)N1)N=C1C(=[N+]2[O-])CCC/C1=N\O was read as CDC25B CDK2 inh -3.22.
For CC(C)[N+]1(Cc2ccccc2)C2=C(CN(C)CC2)c2ccccc21 (configuration not stated) the results were CDC25B CDK2 inh -0.39.
Screening CC(=O)NCCOc1nc(N2CCCCC2)nc(N2CCCCC2)n1 returned CDC25B CDK2 inh -0.79 and TAR Tat displ 1.02.
Screening O=C(c1ccc(F)cc1)C(C(=O)N1CCCCC1)n1cc(Cl)ccc1=O (configuration not stated) returned CDC25B CDK2 inh -0.48 and TAR Tat displ 0.88.
O=C(Nc1ccc(F)cc1F)NC1CCN(c2nc3ccccc3s2)CC1 was read as CDC25B CDK2 inh -0.4 and TAR Tat displ 0.98.
For Cn1c(=O)c2cc(S(=O)(=O)NCCC(=O)NC3CCCC3)ccc2n(C)c1=O the results were CDC25B CDK2 inh 3.48.
CCOC(=O)N1CCC(N[C@H]2CS(=O)(=O)C[C@@H]2S(=O)(=O)c2ccc(Cl)cc2)CC1 was read as CDC25B CDK2 inh -1.29 and TAR Tat displ 0.34.
Screening CCc1nn(C(CC)C(=O)NC(C)c2ccccc2)c(=O)c2cc3oc(C)cc3n12 (configuration not stated) returned CDC25B CDK2 inh -0.27 and TAR Tat displ -0.65.
`CC1Cc2cc(S(=O)(=O)N3CCC(C(=O)NCC4CCCO4)CC3)ccc2N1C(=O)C1CC1` (configuration not stated) gave TAR Tat displ 0.21.

Next results follow:
`O=C(O)c1ccc([N+](=O)[O-])cc1Oc1cccc([N+](=O)[O-])c1` gave CDC25B CDK2 inh -0.2.
`CCOCCn1c(CN2CCCC(C)C2)nc2c1c(=O)n(C)c(=O)n2C` (configuration not stated) gave CDC25B CDK2 inh -2.51 and TAR Tat displ 1.26.
For Cc1c(Cl)cccc1N1CCn2c1nc1c2c(=O)n(CC(=O)O)c(=O)n1C the results were CDC25B CDK2 inh -1.34 and TAR Tat displ 1.89.
`Cn1c2ccccc2c2cnn(CC(=O)N3CCN(Cc4ccc5c(c4)OCO5)CC3)c(=O)c21` gave CDC25B CDK2 inh -0.59 and TAR Tat displ -1.12.
Cn1ccc2cc(S(=O)(=O)N3CCC(C(=O)N4CCOCC4)CC3)ccc21 was read as TAR Tat displ 1.5.
Screening CCOc1cc(/C=C2\SC(=S)N(CC(=O)OC)C2=O)ccc1O returned CDC25B CDK2 inh -2.89.
For O=C(CN1c2ccccc2S(=O)(=O)c2ccccc21)NC1CCCCC1 the results were TAR Tat displ -0.17.
`COC(=O)c1c(C)oc2ccc(NS(=O)(=O)c3cccs3)cc12` gave CDC25B CDK2 inh -1.09 and TAR Tat displ -0.41.
`COc1ccccc1NC(=O)N1CCCN(C(=O)c2cccs2)CC1` gave CDC25B CDK2 inh -0.83.
CCn1nc(C)c(CCNC(=O)Nc2ccc(F)cc2)c1C was read as TAR Tat displ 3.44.

Taken from the results shown for reference:
`COc1ccccc1NC(=O)N1CCCN(C(=O)c2cccs2)CC1` gave CDC25B CDK2 inh -0.83.
CCn1nc(C)c(CCNC(=O)Nc2ccc(F)cc2)c1C was read as TAR Tat displ 3.44.

Other records
CC(CNc1nc2ccccc2n2nnnc12)c1ccccc1 (configuration not stated) was read as CDC25B CDK2 inh -0.36 and TAR Tat displ 0.93.
For COc1ccc(-c2csc3ncnc(N4CCN(c5ccc(OC)cc5)CC4)c23)cc1 the results were TAR Tat displ 1.64.
Screening COC(=O)c1nccnc1C(=O)Nc1ccccc1N1CCOCC1 returned CDC25B CDK2 inh -0.3.
Screening COc1ccc(Nc2c(C)c(C)nc3ncnn23)cc1 returned TAR Tat displ 1.63.
`C#CCSC1=N/C(=C/N(C)C)C(=O)N1` gave CDC25B CDK2 inh -0.5.
CC1=N/C(=C\C=C\c2ccccc2)C(=O)O1 was read as CDC25B CDK2 inh -0.97.
CN(CC(=O)NC1CCCC1)S(=O)(=O)c1ccc2[nH]c(=O)oc2c1 was read as TAR Tat displ -0.84.
`N/C(=N\OC(=O)c1csnn1)c1ccc(Cl)cc1` gave CDC25B CDK2 inh -1.
Screening O=C1OC(Nc2ccc(F)c(F)c2)c2ccccc21 (configuration not stated) returned CDC25B CDK2 inh -1.39 and TAR Tat displ 0.1.
Cc1cc2ncn(CCOc3ccccc3C)c2cc1C was read as CDC25B CDK2 inh -2.11 and TAR Tat displ 3.19.
`CC1=C(c2cccc(Cl)c2)S(=O)(=O)N=C1N(C)Cc1ccccc1` gave CDC25B CDK2 inh -6.13 and TAR Tat displ 1.56.
COCCCNC(=O)CCc1nc2sc3c(c2c(=O)[nH]1)CCC(C(C)(C)C)C3 (configuration not stated) was read as TAR Tat displ 0.03.
CN(C)C(CNC(=O)COc1ccc(F)cc1)c1ccco1 (configuration not stated) was read as CDC25B CDK2 inh -1.65 and TAR Tat displ 0.97.
For COc1ccc(C2NC(=O)c3[nH]nc(-c4ccccc4)c32)cc1OC (configuration not stated) the results were TAR Tat displ -0.17.
`CCOC(=O)N1CCC(Nc2c(N3CCOCC3)c(=O)c2=O)CC1` gave CDC25B CDK2 inh -0.13 and TAR Tat displ 0.37.
For O=C(NCCO)C1=Cc2ccccc2OC=C1 the results were CDC25B CDK2 inh -1.07 and TAR Tat displ -1.35.
For c1ccc(-c2c(-c3ccccc3)n(Cc3ccco3)c3ncn4nc(-c5ccco5)nc4c23)cc1 the results were CDC25B CDK2 inh 13.9 and TAR Tat displ -5.13.
`Clc1ccc(OCCSc2nc3ccccc3o2)cc1` gave CDC25B CDK2 inh -2.33 and TAR Tat displ -0.76.
`O=C(Nc1ccccc1)c1cnc2sccn2c1=O` gave CDC25B CDK2 inh -1.21 and TAR Tat displ 3.07.
For O=C(OCc1ccc(C(F)(F)F)cc1)c1ccc([N+](=O)[O-])o1 the results were CDC25B CDK2 inh -1.69.
`Cc1ccc2occ(CC(=O)Nc3sc4c(c3C(=O)NCC3CCCO3)CCCC4)c2c1` (configuration not stated) gave CDC25B CDK2 inh -0.47 and TAR Tat displ 2.35.
CCN(c1ccccc1)S(=O)(=O)c1ccc(-c2cc(C)no2)s1 was read as TAR Tat displ 0.51.
For Cc1ccc2oc(C(=O)N(Cc3ccc(F)cc3)C3CCS(=O)(=O)C3)cc(=O)c2c1 (configuration not stated) the results were CDC25B CDK2 inh -2.3 and TAR Tat displ -1.25.
`CCOC(=O)Cn1c(=O)oc2cc(S(=O)(=O)N3CCCC(C)C3)ccc21` (configuration not stated) gave CDC25B CDK2 inh -0.6 and TAR Tat displ -0.63.
`CCc1ccccc1-n1nnc(-c2ccccc2)n1` gave CDC25B CDK2 inh -1.02 and TAR Tat displ 0.35.
`Fc1ccc(CNc2nc3ccccc3c3nc(-c4ccncc4)nn23)cc1` gave CDC25B CDK2 inh -1.15 and TAR Tat displ 3.34.
`CCOc1ccc(/C=C/c2nc(C#N)c(NCc3ccco3)o2)cc1` gave CDC25B CDK2 inh -2.19 and TAR Tat displ 2.31.
`Cc1cc(C)cc(Oc2coc3cc(O)ccc3c2=O)c1` gave CDC25B CDK2 inh 0.65 and TAR Tat displ 1.59.
Screening CN(CC(=O)NC1CCCCCC1)S(=O)(=O)c1cccc2cccnc12 returned CDC25B CDK2 inh -2.19.
Screening CC(=O)CC(=O)Nc1ccccc1Cl returned CDC25B CDK2 inh 0.65.
Cc1nc2ccccc2n1CCc1nc2c3ccccc3nc(=S)n2[nH]1 was read as CDC25B CDK2 inh -1.47.
`CCCCc1nc2c(=O)n(C)c3ccccc3c2o1` gave CDC25B CDK2 inh -1.25.
Screening c1ccc2c(c1)c1ccccc1c1nn3nnnc3nc21 returned CDC25B CDK2 inh 0.04.
Screening O=C(CCS(=O)(=O)c1ccc(Cl)cc1)Nc1nc(-c2cccs2)cs1 returned TAR Tat displ 1.26.
Cc1ccc(NC(=S)NNC(=O)c2ccc[nH]2)cc1Cl was read as CDC25B CDK2 inh -1.33.
`CCOC(=O)C1=C(O)CSC1=Nc1cccc(Cl)c1` gave CDC25B CDK2 inh -1.95 and TAR Tat displ 1.28.
Screening CCCNC(=O)Cn1nc(CC)n2c(cc3sccc32)c1=O returned CDC25B CDK2 inh -1.58 and TAR Tat displ -0.21.
For CC(=O)N1c2ccc(S(=O)(=O)N3CCN(c4ccc(Cl)cc4)CC3)cc2CC1C (configuration not stated) the results were TAR Tat displ 1.23.
`O=C(Cn1cnc2c(nc3n2CCCCC3)c1=O)NCCN1CCOCC1` gave TAR Tat displ -0.35.
N[C@@H](Cc1cc(I)c(Oc2ccc(O)c(I)c2)c(I)c1)C(=O)O was read as TAR Tat displ -0.36.
Screening O=C(Cn1ncn2nc(-c3ccco3)cc2c1=O)NC1CCCCC1 returned CDC25B CDK2 inh -1.69 and TAR Tat displ -1.06.
Screening CCN(CC#CC(O)(c1ccccc1)C1CCCC1)C(C)C (configuration not stated) returned CDC25B CDK2 inh -1.34 and TAR Tat displ 0.06.
Cc1cc(=O)nc2c3ccccc3n(CC(=O)N3CCCCC3)n12 was read as CDC25B CDK2 inh -2.47 and TAR Tat displ 0.45.
CC(=O)/C(C)=N/NC(=O)Cc1cccs1 was read as CDC25B CDK2 inh 0.44.
Screening CCN(CC)S(=O)(=O)c1nnc(NC(=O)C(C)C)s1 returned CDC25B CDK2 inh -1.69 and TAR Tat displ 2.67.
`CSC(=Nc1ccc(Cl)cc1)N(C)C` gave CDC25B CDK2 inh -0.72.
CC(C)Nc1ncnc2onc(-c3cc(F)cc(F)c3)c12 was read as TAR Tat displ 1.47.
For O=c1c(N2CCCCC2)coc2ccccc12 the results were CDC25B CDK2 inh -2.36.
